Cdc25B inh: inhibitors of Cdc25B phosphatase catalytic domain, primary screen, biochemical, OMFP fluorescence | recombinant Cdc25B, OMFP fluorescence Ex485/Em525 | AID 368, 2006 | inhibition, %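 (compounds tested at 10 µM final in the well)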 | 65,000 tested, 0.1% active; in the data active means inhibition above about 50%
CatG inh: human cathepsin G inhibitors, primary screen, biochemical, pooled compound mixtures, AMC fluorescence | P08311 | inhibition, % at 5 µM (by protocol) | purified enzyme, AMC-tetrapeptide fluorescence | 62,000 tested, 0.2% active;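 active means inhibition above 20% in each of the two mixture wells holding the compound; inactive means inhibition of 20% or less in either well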;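 further: 0% = enzyme control without mixture and 100% = blank lacking enzyme; strong numbers were not always called active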
DUSP1 inh: MKP-1 phosphatase inhibitors, primary screen, biochemical, in vitro; 65,000 tested, 0.15% active; inhibition, %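 (compounds tested at a single concentration somewhere between 10 and 100 µM)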; Dual specificity protein phosphatase 1 (Homo sapiens), P28562; recombinant MKP-1, OMFP hydrolysis fluorescence;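 active means inhibition above about 50%, limit read from the data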;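 further: 0% = DMSO max control wells and 100% = wells with enzyme stopped by NaOH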
Target sequence (P28562 whole entry, looked up): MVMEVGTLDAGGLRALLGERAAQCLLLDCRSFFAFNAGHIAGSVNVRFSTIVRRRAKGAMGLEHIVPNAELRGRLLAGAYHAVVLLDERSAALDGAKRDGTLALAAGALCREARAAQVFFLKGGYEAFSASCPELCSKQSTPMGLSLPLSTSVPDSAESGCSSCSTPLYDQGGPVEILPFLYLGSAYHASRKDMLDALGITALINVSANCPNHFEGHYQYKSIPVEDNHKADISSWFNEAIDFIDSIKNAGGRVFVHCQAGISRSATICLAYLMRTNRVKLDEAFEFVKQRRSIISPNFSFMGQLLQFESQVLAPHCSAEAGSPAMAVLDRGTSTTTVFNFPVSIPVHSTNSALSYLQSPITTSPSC
HTR1A agonist: human 5-HT1a receptor agonists, primary screen, cell-based, CHO, Ga15 NFAT-bla reporter. 5-hydroxytryptamine receptor 1A (Homo sapiens), P08908. CHO 5-HT1a Ga15 NFAT-bla reporter, FRET ratio; 0% basal, 100% maximal reference agonist. activation, % at 10 µM. 65,000 tested, 0.56% active. AID 567, 2006;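 active means activation above the screen-wide mean activation plus 3 SD, cut at about 19% in these data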;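 further: 0% = DMSO wells and 100% = 5-CT at EC100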
FXIIa inh mix: human factor XIIa inhibitors, primary screen, biochemical, pooled compound mixtures, fluorogenic substrate | Coagulation factor XII (Homo sapiens), P00748 | purified FXIIa | inhibition, % at 5 µM | 62,000 tested, 0.2% active; in the data active means inhibition above about 20%, passing the limit was not always enough;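 further: 0% = enzyme without compound and 100% = no enzyme blank; some results filed as inactive read as strong as hits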
Hsp90 block: tumor Hsp90 inhibitors, primary screen, cell lysate, fluorescence polarization, NCI-N417 lysate; Heat shock protein HSP 90-alpha (Homo sapiens), P07900; Cy3B-geldanamycin FP displacement; inhibition, % at 30 µM; 64,000 tested, 0.35% active; AID 429, 2006;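 active means inhibition above 50%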;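 further: 0% = tracer plus lysate wells and 100% = tracer alone without lysate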
CatL block: inhibitors of human cathepsin L, biochemical | Procathepsin L (Homo sapiens), P07711 | purified cathepsin L, fluorogenic substrate, fluorescence | 58,000 tested, 0.17% active | inhibition, %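 (tested at 10 µM)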 | AID 460, 2006; in the data active means inhibition above about 45%;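 further: 0% = enzyme with no compound and 100% = no enzyme blank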
Active calls of the source: *; / = no result given.

SMILES	Cdc25B inh	CatG inh	DUSP1 inh	HTR1A agonist	FXIIa inh mix	Hsp90 block	CatL block
CCOc1ccc(NC(=O)c2ccco2)cc1	-16	10	-6	-3.4	8	2	7
CCCCCn1c(=NC(C)=O)c(C#N)cc2c(=O)n3ccccc3nc21	-1	-15	-4	11	10	-9	-283
Cc1ccc(C2CC(=O)NC3=C2C(=O)CCC3)cc1Br (stereo unspecified)	10	5	8	-2.1	5	-6	-5
CCCC(=O)n1nc(-c2ccco2)nc1SCc1ccccc1	-13	11	5	-1.9	5	-3	/
CCOC(=O)N1CCN(C(=O)C2CCN(S(=O)(=O)N(CC)CC)CC2)CC1	-23	7	10	-2.1	8	-3	-4
O=C(NC1CCCCC1)C1CCN(c2cnccn2)CC1	-4	4	-9	-5.0	-18	2	2
O=C(Oc1cccc2ccccc12)c1ccco1	-2	7	0	-0.1	6	2	15
Cc1nc2cc(F)ccc2n1C1CCN(S(=O)(=O)c2ccccc2)CC1	9	-23	5	0.6	2	-1	7
COc1ccc(-c2nc(SC)n(S(=O)(=O)c3ccccc3)n2)cc1	-5	-11	-1	-3.5	5	-3	0
COc1ccc(C(N)CCc2ccc(C)o2)cc1 (stereo unspecified)	-21	-3	-13	-5.0	8	-13	8
O=C(O)c1cc(Cl)c(Cl)cc1C(=O)N1CCCC1	-10	-3	-6	-1.2	7	0	0
N#Cc1cnc(SCC(=O)Nc2ccccc2C(F)(F)F)nc1N	-4	6	-3	1.0	8	-7	-6
Cn1c(SCC(=O)NCc2ccco2)nnc1-c1cccs1	-10	-3	-2	-0.8	-10	-1	10
COc1ccc(Br)cc1/C=N/n1c(C)nnc1C	3	9	4	/	4	/	13
COC(=O)COc1cccc(NC(=O)COc2ccccc2)c1	-5	-7	-4	-4.0	-2	0	1
CCOC(=O)C1CCN(C(=O)C2CCN(S(=O)(=O)N3CCCC3)CC2)CC1	-14	9	1	-0.3	0	3	13
COc1cc(OC)c(OC)cc1/C=N/n1c(C)nnc1C	-7	-5	10	-0.2	5	-1	-53
O=C(c1cccc(F)c1)n1nnc2ccccc21	-7	-3	0	-0.8	3	-2	8
O=C(c1ccc2c(c1)OCO2)N1CCN=C1SCc1cccnc1	-5	-3	5	-3.3	4	-2	-8
CCC(=O)Nc1cccc(NC(=O)COc2ccc(OC)cc2)c1	-13	4	2	-3.0	-1	-1	-1
Cc1cc(NC(=O)C2CC(c3ccc(F)cc3)=NO2)no1 (stereo unspecified)	0	8	17	0.5	-10	-1	/
COc1ccc(C2=NOC(C(=O)NCc3ccc(F)cc3)C2)cc1OC (stereo unspecified)	-12	-16	-7	-2.4	-3	-3	4
COc1ccc(S(=O)(=O)N(CCN2CCOCC2)Cc2cc(OC)ccc2OC)cc1	-3	6	20	-1.6	-18	0	0
CCN1CCN(C(=O)C2CC(c3ccc(F)cc3)=NO2)CC1 (stereo unspecified)	-9	0	-2	0.4	0	-2	7

A stretch from further up, for reference:
SMILES	Cdc25B inh	CatG inh	DUSP1 inh	HTR1A agonist	FXIIa inh mix	Hsp90 block	CatL block
COc1ccc(C(N)CCc2ccc(C)o2)cc1 (stereo unspecified)	-21	-3	-13	-5.0	8	-13	8
O=C(O)c1cc(Cl)c(Cl)cc1C(=O)N1CCCC1	-10	-3	-6	-1.2	7	0	0
N#Cc1cnc(SCC(=O)Nc2ccccc2C(F)(F)F)nc1N	-4	6	-3	1.0	8	-7	-6
Cn1c(SCC(=O)NCc2ccco2)nnc1-c1cccs1	-10	-3	-2	-0.8	-10	-1	10
COc1ccc(Br)cc1/C=N/n1c(C)nnc1C	3	9	4	/	4	/	13
COC(=O)COc1cccc(NC(=O)COc2ccccc2)c1	-5	-7	-4	-4.0	-2	0	1
CCOC(=O)C1CCN(C(=O)C2CCN(S(=O)(=O)N3CCCC3)CC2)CC1	-14	9	1	-0.3	0	3	13
COc1cc(OC)c(OC)cc1/C=N/n1c(C)nnc1C	-7	-5	10	-0.2	5	-1	-53
O=C(c1cccc(F)c1)n1nnc2ccccc21	-7	-3	0	-0.8	3	-2	8
O=C(c1ccc2c(c1)OCO2)N1CCN=C1SCc1cccnc1	-5	-3	5	-3.3	4	-2	-8
CCC(=O)Nc1cccc(NC(=O)COc2ccc(OC)cc2)c1	-13	4	2	-3.0	-1	-1	-1
Cc1cc(NC(=O)C2CC(c3ccc(F)cc3)=NO2)no1 (stereo unspecified)	0	8	17	0.5	-10	-1	/
COc1ccc(C2=NOC(C(=O)NCc3ccc(F)cc3)C2)cc1OC (stereo unspecified)	-12	-16	-7	-2.4	-3	-3	4
COc1ccc(S(=O)(=O)N(CCN2CCOCC2)Cc2cc(OC)ccc2OC)cc1	-3	6	20	-1.6	-18	0	0
CCN1CCN(C(=O)C2CC(c3ccc(F)cc3)=NO2)CC1 (stereo unspecified)	-9	0	-2	0.4	0	-2	7

Not all compounds are listed; rates above refer to the full screens.
